Compound activity from PubChem.
Mtb bLac sens – beta-lactam sensitization of Mtb H37Rv | M. tuberculosis H37Rv growth with meropenem, percent inhibition; hits of this screen are not shown here | hit rate 0.27% among 330,000 | inhibition, % at 25 µM;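 active means about 74% or more and at least 40 points above the plate without the antibiotic, then above 30% in a dose series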;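 further: growth measured after seven days incubation then overnight dye step; 0% = bacteria only wells and 100% = bacteria with antibiotic; twin plates without the antibiotic show which effects depend on it; some results filed as inactive read as strong as hits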
YopH inh – blocks Yersinia enterocolitica YopH tyrosine phosphatase | fluorescence Ex485/Em525 | inhibition, %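 (about 10 µM by stock and volumes)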 | hit rate 0.16% among 140,000;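 active means inhibition of 50% or more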;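 further: controls were vehicle for no effect and minimum signal wells for full effect; inactives centre near -20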
RecA splice inh – Mtb RecA intein splicing inhibition; P9WHJ3; cell-free RecA intein splicing, fluorescence; inhibition, %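 (about 9 µM by stock and volumes)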; hit rate 0.75% among 290,000; AID 2221; in the data active means inhibition above about 30%;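 further: 0% = vehicle wells and 100% = reference inhibitor control wells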
Target sequence (P9WHJ3 whole entry, looked up, canonical isoform): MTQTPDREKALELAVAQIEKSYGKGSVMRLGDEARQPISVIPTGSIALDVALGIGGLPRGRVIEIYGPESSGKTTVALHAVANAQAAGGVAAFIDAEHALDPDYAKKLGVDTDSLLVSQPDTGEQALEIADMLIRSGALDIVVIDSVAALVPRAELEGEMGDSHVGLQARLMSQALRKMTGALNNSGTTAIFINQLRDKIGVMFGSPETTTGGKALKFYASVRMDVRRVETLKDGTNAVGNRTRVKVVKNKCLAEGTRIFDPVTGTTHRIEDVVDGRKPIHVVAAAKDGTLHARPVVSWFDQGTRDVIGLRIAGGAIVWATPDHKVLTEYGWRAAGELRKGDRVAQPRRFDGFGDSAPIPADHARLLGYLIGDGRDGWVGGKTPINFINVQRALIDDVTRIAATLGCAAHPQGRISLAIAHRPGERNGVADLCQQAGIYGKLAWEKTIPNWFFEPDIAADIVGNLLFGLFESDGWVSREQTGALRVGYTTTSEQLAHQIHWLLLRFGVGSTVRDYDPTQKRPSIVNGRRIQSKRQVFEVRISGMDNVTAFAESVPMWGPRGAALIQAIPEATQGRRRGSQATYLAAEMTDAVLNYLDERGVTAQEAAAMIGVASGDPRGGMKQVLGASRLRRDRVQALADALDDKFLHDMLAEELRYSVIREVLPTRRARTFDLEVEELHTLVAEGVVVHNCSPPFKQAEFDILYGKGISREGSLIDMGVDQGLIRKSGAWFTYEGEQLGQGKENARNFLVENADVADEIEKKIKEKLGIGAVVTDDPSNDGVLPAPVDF
Arbovirus inh – antivirals against arbovirus infection; arbovirus infection cell-based antiviral screen; inhibition, % at 10 µM; hit rate 0.37% among 200,000;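 active means inhibition from about 30%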;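 further: bluetongue infection of BSR cells; cell survival read as ATP light after 72 h; 0% = infected wells without compound and 100% = uninfected wells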
Mtb growth – M. tuberculosis H37Rv growth inhibitors, H37Rv strain (AID 1626); M. tuberculosis H37Rv growth inhibition; higher % means a stronger effect; one-dose inhibition, % at 10 µM; IC50 in µM for titrated hits; hit rate 0.95% among 220,000;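 active means confirmed in a dose series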;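 further: bacteria incubated seven days before Alamar blue readout; 0% = bacteria only wells and 100% = bacteria with antibiotic wells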
Arbovirus inh repeat – further read-out of Arbovirus inh, marked with its call; inhibition, %; measured here: 10K subset replicate screen; many hits read low in the repeat;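 first of two repeat runs on a subset; 0% = infected and 100% = uninfected wells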
The depositor's hits bear a star; . = no result given. An excerpt; rates above refer to the full screens.

SMILES	Mtb bLac sens	YopH inh	RecA splice inh	Arbovirus inh	Mtb growth	others
CCOC(=O)c1[nH]c(C)c(C(=O)N(C)Cc2ccccc2)c1C	-13	-16	-0.8	-3	-3%
Cn1c(=O)[nH]c(=O)c2c1nc(N1CCCCC1)n2C/C=N/NC(=O)c1cc(Br)ccc1O	33	.	-1.6	.	-5%
O=C(CCc1nc2ccccc2c(=O)[nH]1)NCc1ccco1	6	.	-2.5	-2	3%
COc1ccc(N2CCN(C(=O)Cc3nn(C)c(=O)c4ccccc34)CC2)cc1	-11	16	-1.1	10	-6%
CC(=O)C1=C(C)N2CCN=C2S1	1	.	-1.1	.	-4%
O=Cc1ccc(OC(=O)/C=C/c2ccccc2)cc1	-1	.	0.5	.	.
Cc1[nH]nc(SCC(=O)N2CCCCC2)c1[N+](=O)[O-]	6	-17	-3.2	-1	-1%
CCOc1ccccc1N(CC(=O)Nc1ccc(C)cc1)S(C)(=O)=O	9	-23	-5.6	-7	-5%
COc1ccccc1NC(=O)C1=C(C)NC(=O)NC1c1ccccc1[N+](=O)[O-] (stereo not drawn)	4	.	-3.8	12	1%
CSCCC(NC(=O)COc1ccccc1)C(=O)N1CCN(c2ccccc2Cl)CC1 (stereo not drawn)	0	.	-2.4	.	.
COc1ccc2oc(-c3ccc(C)c(NC(=O)CSc4ccc(Cl)cc4)c3)nc2c1	1	-23	0.6	-4	-2%
COC(=O)[C@@]12CCCN1[C@H](c1ccc(-c3ccc(Cl)c(Cl)c3)cc1)[C@H]1C(=O)N(C)C(=O)[C@H]12	55	.	14	.	.
Cn1c(O)c(C=NCCCNC2CCCCC2)c(=O)n(C)c1=O	-5	-161	0.6	2	-8%
CCN(CC)CCNC(CC(=O)Nc1ccc(Cl)cc1Cl)C(=O)O (stereo not drawn)	-8	-4	5.1	0	-13%
Cc1cccc(C(=O)N2CCCC(Nc3ccc(C)c(C)c3)C2)n1 (stereo not drawn)	9	.	-1.5	.	.
CS(=O)(=O)c1ccc(C(=O)OCC(=O)c2ccc(Cl)s2)cc1	-2	.	0.1	.	.
Cc1ccc(S(=O)(=O)N2CCCC2C(=O)NCc2ccccc2Cl)cc1 (stereo not drawn)	-12	.	-2.2	.	.
O=C(NC1CCCC1)C(c1ccccn1)N(C(=O)c1csnn1)C1CC1 (stereo not drawn)	8	-17	1.1	6	-2%
NC(=O)C[C@H]1NC(=O)[C@H](CCC(=O)O)NC(=O)c2cc([N+](=O)[O-])cc(I)c2NCCC[C@@H](C(N)=O)NC1=O	-7	-34	6.5	0	3%
Fc1cccc(CCN2CCNC[C@@H]2Cc2ccccc2)c1	-5	.	-1.5	.	-12%

Brought forward from above: six compounds; new compounds follow.
SMILES	Mtb bLac sens	YopH inh	RecA splice inh	Arbovirus inh	Mtb growth	others
Cc1cccc(C(=O)N2CCCC(Nc3ccc(C)c(C)c3)C2)n1 (stereo not drawn)	9	.	-1.5	.	.
CS(=O)(=O)c1ccc(C(=O)OCC(=O)c2ccc(Cl)s2)cc1	-2	.	0.1	.	.
Cc1ccc(S(=O)(=O)N2CCCC2C(=O)NCc2ccccc2Cl)cc1 (stereo not drawn)	-12	.	-2.2	.	.
O=C(NC1CCCC1)C(c1ccccn1)N(C(=O)c1csnn1)C1CC1 (stereo not drawn)	8	-17	1.1	6	-2%
NC(=O)C[C@H]1NC(=O)[C@H](CCC(=O)O)NC(=O)c2cc([N+](=O)[O-])cc(I)c2NCCC[C@@H](C(N)=O)NC1=O	-7	-34	6.5	0	3%
Fc1cccc(CCN2CCNC[C@@H]2Cc2ccccc2)c1	-5	.	-1.5	.	-12%
COc1ccc(NC(=O)COC(=O)COc2cccc(Br)c2)cc1OC	0	.	2.0	2	-2%
CNC(=O)c1cc2cc(Br)ccc2s1	-5	.	-3.8	0	6%
O=C(CN1CCN(CCC(=O)Nc2ccccc2F)CC1)Nc1ccc(Cl)cc1	-3	-32	0.3	7	.
Cc1cccc(OCCCC(=O)NC(C)C)c1	2	3	-0.2	5	7%
Cc1cc(Cl)cc(C)c1OCCn1ccnc1	16	.	-1.5	.	.
CNC(=O)c1ccccc1Sc1ccccc1CO	-10	.	-2.0	.	-2%
Cc1ccc(C)c(-n2c(=O)c(C#N)cc3c(=O)n4ccccc4nc32)c1	1	.	-267	-3	6%
O=C(CCn1cccc1)NCCc1ccc(Cl)cc1	-3	-11	-3.3	1	-20%
CC(=O)Nc1cccc(Oc2nc(C)cc(C)c2C#N)c1	3	-19	-3.2	2	10%	Arbovirus inh repeat=-5
O=c1ccc(=O)n(-c2ccccc2)[nH]1	-10	.	0.7	.	-11%
CCOC(=O)/C=c1\s/c(=C\c2c(OC)ccc3ccccc23)c(=O)n1CC(=O)NCC1CCCO1 (stereo not drawn)	.	-16	-13	-16	4%
O=C(O)c1ccc(N2CCCCC2)cc1O	47	.	-1.5	.	6%
COC(=O)C12CCC3(SCCS3)C(C(=O)OC)(CCC13SCCS3)C2	-11	-13	1.2	12	1%
O=C(Nn1cnnc1)c1ccccc1-c1ccccc1	-10	-15	-1.3	1	-13%
Cc1cc(-c2nnc(SCC(=O)c3ccc(F)cc3)o2)no1	-2	-15	1.2	-6	4%
O=C(CSc1ncc(C(F)(F)F)cc1Cl)NCC1CCCO1 (stereo not drawn)	-6	.	-15	.	-5%
O=C(COC(=O)Cc1ccc(Cl)cc1)Nc1ccccc1F	84	.	1.5	-4	2%
O=C(O)C1Nc2c(C(F)(F)F)ccc(Cl)c2C2C=CCC12 (stereo not drawn)	-6	.	3.1	.	.
CCCCOC(=O)Nc1ccc(S(=O)(=O)Nc2nc(C)cc(C)n2)cc1	21	-37	3.7	-1	-4%
O=C(Cc1c(C(=O)O)[nH]c2ccccc12)Nc1ccc2c(c1)OCO2	-6	-8	-2.9	-1	-2%	Arbovirus inh repeat=4

A section from the list above:
SMILES	Mtb bLac sens	YopH inh	RecA splice inh	Arbovirus inh	Mtb growth	others
O=C(O)C1Nc2c(C(F)(F)F)ccc(Cl)c2C2C=CCC12 (stereo not drawn)	-6	.	3.1	.	.
CCCCOC(=O)Nc1ccc(S(=O)(=O)Nc2nc(C)cc(C)n2)cc1	21	-37	3.7	-1	-4%
O=C(Cc1c(C(=O)O)[nH]c2ccccc12)Nc1ccc2c(c1)OCO2	-6	-8	-2.9	-1	-2%	Arbovirus inh repeat=4

Next compounds
SMILES	Mtb bLac sens	YopH inh	RecA splice inh	Arbovirus inh	Mtb growth	others
CC(=O)c1nn(-c2ccccc2)cc1C(=O)c1ccc(Br)cc1	1	-17	-0.9	-14	14%
CC1=C(C(=O)N2CCCC(C(=O)c3cccc(C(F)(F)F)c3)C2)OCCO1 (stereo not drawn)	1	.	-1.2	1	-4%
COc1ccc(S(=O)(=O)N2CCOC23CCN(C(=O)c2ccccc2Br)CC3)cc1	-4	.	1.9	.	.
O=C1OCc2cc(-n3cccc3)ccc21	-11	.	-0.1	3	-4%
CC1(C)CN(c2ccc(N3CC(C)(C)C3=O)cc2)C1=O	0	.	-3.3	0	2%
O=C(Nc1nc(NC(=O)c2ccco2)n(-c2ccccc2)n1)c1ccccc1	98	-28	14	-19	2.6µM*
Cc1ccc(CNC(=O)C2CCC(=O)N(CCc3ccc(Cl)cc3)C2)s1 (stereo not drawn)	4	.	-4.6	.	.
CC(=O)NC(C(=O)N1CCC(c2nc3ccccc3s2)CC1)C(C)C (stereo not drawn)	-20	.	-0.2	.	.
O=C(c1ccc(NS(=O)(=O)c2ccccc2)cc1)N1CCCC1	-9	-23	-2.2	1	-14%
COCCCNC(=O)c1ccc(N(C)S(=O)(=O)c2ccc(OC)cc2)cc1	8	0	0.5	0	-4%
Cc1cc2c(c(N)n1)c(=O)oc1ccccc12	-5	-49	0.0	-12	-3%
Nc1nc(SCC(=O)NCCc2ccccc2)[nH]c(=O)c1-c1ccccc1	-5	.	-0.9	7	1%
Cc1cc2nc(-c3ccc(SCC(=O)Nc4nccs4)nc3)[nH]c2cc1C	.	-25	.	-5	7%
Cc1ccc(Nc2nnc(SC3CCOC3=O)s2)c(C)c1 (stereo not drawn)	0	-9	0.2	-3	-1%
CC(C)CCNc1cc(=O)n(C)c(=O)n1C	-9	-13	-2.2	-2	1%
NCC12CC3CC(C1)CC(c1ccc(Br)cc1)(C3)C2	50	.	2.8	.	.
CCOc1cccc(N(C(=O)CCC(=O)Nc2cc(C)on2)C(C(=O)NC(C)(C)C)c2ccc(OC)cc2)c1 (stereo not drawn)	-5	.	7.4	.	.
O=C1C2C3C=CC(CO)(O3)C2C(=O)N1c1ccc(-c2ccccc2)cc1 (stereo not drawn)	96	-36	6.3	.	73%
COC(=O)c1cc(C(=O)OC)cc(N2C(=O)CN=C2Nc2nc(C)cc(C)n2)c1	-6	-2	-0.9	-1	-6%
COC(=O)C1=C(C(=O)OC)SC(=C2C(=S)C(C)(C)N(C(=O)CC(C)C)c3ccccc32)S1	.	-10	-4.1	-4	2%
COC(C[C@@H](O)C[C@H](O)[C@H](C)OCc1ccccc1)OC	-8	.	0.3	.	-2%
COc1ccc(S(=O)(=O)N(CCC#N)Cc2ccco2)cc1OC	2	.	0.1	.	-7%
C=CCSc1nnc(NC(=O)c2ccc(S(=O)(=O)NCC3CCCO3)cc2)s1 (stereo not drawn)	-4	-10	0.8	-6	-14%
COc1ccc(S(=O)(=O)NC(C)C(=O)NCc2ccncc2)cc1Cl (stereo not drawn)	3	.	0.8	.	.
O=C(CSc1nnc(Cc2ccccc2)o1)NCc1ccc2c(c1)OCO2	5	.	-1.0	-6	3%
Cc1ccc(-c2nnc(N3CCN(C(=O)COc4cccc(C)c4)CC3)c3ccccc23)cc1	95	.	.	.	54%
CC(=O)c1cnc2sccn2c1=O	-2	.	2.4	-6	-5%
CCOC(=O)c1cnc(Nc2nc3ccccc3o2)nc1CSc1ncccn1	9	-2	2.2	.	0%
Cc1c(CC(=O)O)c(=O)oc2cc3occ(-c4ccccc4)c3cc12	-10	.	-1.0	.	.
CC(C)c1ccc(/C=C2\SC(=O)N(CC(=O)NCCCn3ccnc3)C2=O)cc1	70	.	8.0	.	.
O=C1CCCC/C1=C\Nc1ccc(O)cc1	18	-21	-62	-12	-5%
CC(C)NC(=O)C1CC(=O)N(c2ccc(F)c(Cl)c2)C1 (stereo not drawn)	-8	3	-1.2	5	-3%
O=C(c1ccc2c(c1)OCO2)N1CCC2(CC1)Oc1ccc(F)cc1C(=O)C21CC(c2ccc(Cl)cc2)=NO1 (stereo not drawn)	-1	.	2.7	.	4%
Cc1cccc(OCC(=O)OCC(=O)c2c(N)n(C)c(=O)n(C)c2=O)c1C	-10	-21	0.6	-3	-8%
O=C(COC(=O)c1n[nH]c2ccccc12)Nc1ccc(Cl)cc1[N+](=O)[O-]	-1	.	1.8	-1	3%

Retrieved one by one from the list above:
SMILES	Mtb bLac sens	YopH inh	RecA splice inh	Arbovirus inh	Mtb growth	others
CC(C)NC(=O)C1CC(=O)N(c2ccc(F)c(Cl)c2)C1 (stereo not drawn)	-8	3	-1.2	5	-3%
CC(=O)c1cnc2sccn2c1=O	-2	.	2.4	-6	-5%
O=C1CCCC/C1=C\Nc1ccc(O)cc1	18	-21	-62	-12	-5%
